PV pol inh: poliovirus RdRp elongation inhibitors, primary screen, biochemical, fluorescence polarization, total intensity | Genome polyprotein (Poliovirus type 1 (strain Mahoney)), P03300 | poliovirus polymerase elongation; hits give low values | % elongation, % (compound at 16.7 µg/mL) | 0.66% of 150,000 active | AID 588519, 2011; in the data active = % elongation below about 90%; note: some results filed as inactive read as strong as hits
Target sequence (P03300 1749-2209 limits assumed): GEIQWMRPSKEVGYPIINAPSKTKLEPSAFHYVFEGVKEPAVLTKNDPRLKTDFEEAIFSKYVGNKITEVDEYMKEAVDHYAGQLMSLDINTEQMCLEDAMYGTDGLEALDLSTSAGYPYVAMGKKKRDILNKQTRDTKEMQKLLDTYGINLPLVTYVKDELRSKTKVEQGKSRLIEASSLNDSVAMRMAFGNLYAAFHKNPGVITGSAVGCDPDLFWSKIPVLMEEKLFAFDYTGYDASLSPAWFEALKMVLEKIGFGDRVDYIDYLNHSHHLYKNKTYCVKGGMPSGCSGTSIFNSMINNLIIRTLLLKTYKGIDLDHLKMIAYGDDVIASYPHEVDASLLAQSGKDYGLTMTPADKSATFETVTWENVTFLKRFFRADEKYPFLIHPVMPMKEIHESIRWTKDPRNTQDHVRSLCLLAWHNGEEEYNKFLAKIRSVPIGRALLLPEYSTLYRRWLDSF
PV pol inh intensity: second read-out of PV pol inh, no call of its own (marks repeat the call); % elongation; measured here: total intensity read-out; formula for this scale not given here;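 total fluorescence in place of polarization; lower means less elongation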
Active calls of the source: *. Only part of the results is shown. The share of hits here may be higher or lower than overall.

compound	PV pol inh intensity	PV pol inh
CCOc1ccccc1NC(=O)c1c(NC(=O)COc2ccc(Cl)cc2)sc2c1CCCCC2	100	99
O=C(Cc1ccc(F)cc1)NCCc1csc(-c2ccc(C(F)(F)F)cc2)n1	107	108
Cc1c(C(=O)Nc2nc(-c3ccc(F)cc3)ns2)oc2ccc(Br)cc12	106	106
CSc1ccc(CCNC(=O)C2CCN(c3ncnc4c3nc3n4CCCCC3)CC2)cc1	113	108
CCC(C)NC(=O)CCSc1nc(-c2ccc(OC)cc2)cc(C(F)(F)F)n1 (stereo unspecified)	107	110
CC(=O)N1c2ccc(S(=O)(=O)NCC3CCC(C(=O)NCCC(C)C)CC3)cc2CC1C (stereo unspecified)	114	120
Cc1cc(C)c(Cn2c3ccccc3c3cnn(CC(=O)N4CCCCC4)c(=O)c32)c(C)c1	105	106
COc1ccccc1NC(=O)C1=C(C)Nc2nc(SCc3ccccc3)nn2C1c1cccs1 (stereo unspecified)	107	103
O=C(Nc1ccc(F)c(F)c1)C1CCCN1S(=O)(=O)c1cccc2nsnc12 (stereo unspecified)	110	109
COc1ccc(OC)c(CNC(=O)c2cnc3c(C)cccn3c2=O)c1	105	107
Cc1c(NC(=O)C(C)(C)Oc2ccc(Cl)cc2)cccc1-c1nc2ncccc2o1	95	98
CCc1ccc2nc(N(Cc3cccnc3)C(=O)c3ccc(C#N)cc3)sc2c1	105	101
CCSc1ncc(Cl)c(C(=O)Nc2c(C(=O)Nc3ccc(Cl)cc3)oc3ccccc23)n1	105	106
O=C(Nc1nc2n(n1)C(c1ccc(F)cc1)C=C(c1ccc(Cl)cc1)N2)c1ccco1 (stereo unspecified)	189	108
O=C1CN(C(=O)Cc2ccc(F)cc2)C(c2ccccc2)c2cc(Br)ccc2N1 (stereo unspecified)	105	102
Cc1ccn2c(Nc3ccc4c(c3)OCO4)c(-c3ccc(N(C)C)cc3)nc2c1	108	104
CNc1c(NC(=O)c2cc(OC)cc(OC)c2)c(=O)oc2ccccc12	108	105
Cc1cccc(Cn2c(SCc3ccc(C(=O)NCc4ccccc4F)cc3)nc3cccnc32)c1	114	110
CC1(C)CC(=O)c2c(oc3c(Cl)cc(NS(=O)(=O)c4ccc(Br)cc4)cc23)C1	106	103
Cc1ccc2scc(N3CCc4ccccc4C3)c(=O)c2c1	109	110
COc1ccc(C)cc1NC(=O)Cn1nc(N2CCN(c3ccccc3OC)CC2)ccc1=O	110	104
CCc1cccc(C)c1NC(=O)Cn1ccn(-c2ccc(F)cc2)c(=O)c1=O	114	114
COc1cc(/C=C/c2nc(C#N)c(NC3CCCCC3)o2)cc(OC)c1OC	106	108
COc1cc(OC)cc(C(=O)Nc2cc(-c3nc4ccccc4[nH]3)ccc2C)c1	107	103
COC(=O)c1cc(S(=O)(=O)NCC2CCN(Cc3ccc(F)cc3)CC2)cn1C	102	105
Cc1ccc(-n2nc(C(=O)Nc3ccc(C)c(F)c3)c(=O)n(C)c2=O)cc1	105	106
COC(=O)c1ccc(NC(=O)CSc2ccc(-c3cccs3)nn2)cc1	101	105
COc1ccccc1-c1nc2c(c(SCc3cc(C)ccc3C)n1)Cc1c(CO)cnc(C)c1O2	106	103
CC(=O)Nc1nonc1-c1nnc(SCC(=O)Nc2ccc(C)c(Cl)c2)n1C	115	114
COc1cc(OC)cc(C(=O)NCC(c2cccs2)S(=O)(=O)c2ccc(F)c(C)c2)c1 (stereo unspecified)	102	108

For reference, some entries already given.
compound	PV pol inh intensity	PV pol inh
COc1cc(OC)cc(C(=O)Nc2cc(-c3nc4ccccc4[nH]3)ccc2C)c1	107	103
COC(=O)c1cc(S(=O)(=O)NCC2CCN(Cc3ccc(F)cc3)CC2)cn1C	102	105
Cc1ccc(-n2nc(C(=O)Nc3ccc(C)c(F)c3)c(=O)n(C)c2=O)cc1	105	106
COC(=O)c1ccc(NC(=O)CSc2ccc(-c3cccs3)nn2)cc1	101	105
COc1ccccc1-c1nc2c(c(SCc3cc(C)ccc3C)n1)Cc1c(CO)cnc(C)c1O2	106	103

The list goes on.
compound	PV pol inh intensity	PV pol inh
C=Cc1ccc(Cn2c(C(=O)O)c(CNCc3ccccc3)c3ccc(C)cc32)cc1	96	100
C=CCc1c(C)nc2nc(SCC(=O)Nc3cccc(Cl)c3)nn2c1C	114	109
Cc1nn(-c2ccccc2)c2c1N(CCCC(=O)NCc1ccc(OC(C)C)cc1)C(=O)CS2	104	98
COc1cc(NC(=O)c2cc3c(s2)-c2ccccc2OC3)cc(OC)c1OC	110	107
Cn1c(=O)c(=O)n(C)c2cc(S(=O)(=O)CCC(=O)Nc3ccc(F)cc3)ccc21	105	104
CSc1ncc(Cl)c(C(=O)N(C)c2ccccc2)n1	113	122
CCOC(=O)N1CCN(S(=O)(=O)N2CCCC(C(=O)NCc3cc(OC)ccc3OC)C2)CC1 (stereo unspecified)	107	106
CC1=C(C(=O)Nc2ccc(Cl)cc2)C(C(C)C)n2nc(SCc3cccc(C)c3)nc2N1 (stereo unspecified)	118	116
CC1=Nc2cc(C(=O)NC3CCCCC3)ccc2Sc2ccc(Cl)cc21	106	101
CSc1ccc(CNC(=O)CCn2ccc3cc(S(=O)(=O)N4CCC(C)CC4)ccc32)cc1	101	105
CCOC(=O)c1ccc(CN(Cc2ccc(Br)cc2)S(=O)(=O)c2cccc(C(F)(F)F)c2)cc1	103	102
CC(C)(C)OC(=O)N1CCC(c2c(C(=O)NCc3ccco3)cnn2-c2ccccc2)CC1	105	102
Cc1ccc(CSc2ncc(Cl)c(C(=O)Nc3sc4c(c3C(N)=O)CCCC4)n2)cc1	109	115
COc1ccc(-c2nnc(SCC(=O)Nc3ccc(F)cc3)s2)cc1	109	110
O=C(CSc1nccn1Cc1ccc(F)cc1)NC1CCCC1	112	108
O=C(CC1N=C2c3ccccc3N=C(SCC(=O)Nc3cccc(Cl)c3)N2C1=O)NCc1cccs1 (stereo unspecified)	107	111
CCOC(=O)C1CCC(CN(Cc2ccc(OC)cc2)S(=O)(=O)c2ccc(C)cc2)CC1 (stereo unspecified)	103	105
COc1cc2c(C(=O)N3CCN(c4cccc(C)c4)C(C)C3)cn(CC(C)C)c(=O)c2cc1OC (stereo unspecified)	100	102
COCCn1c(SCC(=O)c2ccccc2)nc2cc(C(=O)NC3CCCC3)ccc2c1=O	114	109
COc1ccccc1CNC(=O)c1cnc(SC)nc1C	117	115
COc1ccc(-c2nnc(SCc3cc(=O)c4cc(C)cc(C)c4[nH]3)n2C)cc1	102	108
Cc1cc2oc(C(=O)Nc3sc4c(c3C(=O)NCc3ccco3)CCC4)cc(=O)c2cc1C	109	109
CCN(c1ccccc1)S(=O)(=O)c1ccc2[nH]cc(C(=O)NC3CCCCC3)c(=O)c2c1	106	104
COc1ccc2oc(=O)c(-c3csc(-c4ccc(Br)cc4)n3)cc2c1	107	108
CCc1ccc(-c2nc(CSCC(=O)NCc3ccccc3OC)c(C)o2)cc1	110	108
Cc1ccc(NC(=O)COc2ccc(-c3nn(C)c(=O)c4ccccc34)cc2)cc1	110	105
CC1=C(C(N)=O)C(c2cccc(Br)c2)n2nc(SCc3ccccc3)nc2N1 (stereo unspecified)	112	110
Cc1ccc(OCC(=O)OCc2cc(=O)n3nc(C4CCCCC4)sc3n2)cc1	99	105
CCCCOc1ccc(C(=O)NCC2(N3CCN(C)CC3)CCCCC2)cc1	113	109
Cc1cccc(C)c1OCC(=O)N1CCC(c2nc3ccccc3o2)CC1	110	110
Cc1ccc(S(=O)(=O)NCC(Nc2cccc(Cl)c2)c2ccccc2)cc1 (stereo unspecified)	103	102
COc1ccccc1N1CCN(C(=O)c2ccc(CS(=O)c3ccccc3C)o2)CC1 (stereo unspecified)	103	103
COc1ccc(OC)c(CNS(=O)(=O)c2c(C(=O)N3CCC(C)CC3)c(C)n(C)c2C)c1	115	108
CC(=O)N1c2ccc(S(=O)(=O)N(C)CC(=O)N(Cc3ccccc3)C(C)C)cc2CC1C (stereo unspecified)	107	102
COc1ccc(-c2cc(C(F)(F)F)nc(SCC(=O)NCc3ccc(OC)c(OC)c3)n2)cc1	107	108
COC(=O)c1ccccc1NC(=O)c1cc2c(-c3ccc(OC)c(OC)c3)nn(C)c2s1	109	108
Cc1ccc(S(=O)(=O)CCC(=O)N2CCN(c3nc4c(C)c(C)ccc4s3)CC2)cc1	101	100
COCCCNC(=O)c1ccc(Cn2c(SCc3cccc(C)c3)nc3cccnc32)cc1	117	112
CCC(=O)Nc1ccc2nc(SCC(=O)N3CCc4ccccc43)sc2c1	110	110
O=C(CCS(=O)(=O)c1cc2c3c(c1)CCN3C(=O)CC2)Nc1cccc(Br)c1	108	110
COc1ccccc1NC(=O)CC(c1cc(OC)c(OC)c(OC)c1)N1Cc2ccccc2C1=O (stereo unspecified)	111	107
O=C(CCc1ccccc1)N1CCc2c([nH]c3ccccc23)C1c1ccc(F)cc1 (stereo unspecified)	106	102
Cc1ccc2[nH]c(=O)c3cc(C(=O)N4CCN(c5ccccc5)CC4)sc3c2c1	111	108
O=C(NC1CC(=O)N(c2ccc3c(c2)OCCO3)C1)c1c(F)cccc1Cl (stereo unspecified)	97	104
CCOc1ccccc1N1CCN(S(=O)(=O)c2ccc(C3CCCCC3)cc2)CC1	103	104
O=C1CC(=O)Nc2cc(S(=O)(=O)N3CCOc4ccccc43)ccc2N1	105	105
CC1CCN(S(=O)(=O)c2cn(CC(=O)Nc3ccc(F)c(Cl)c3)c(=O)c3ccccc23)CC1	112	110
Cc1ccc(C(=O)NC2(C(F)(F)F)C(=O)Nc3c2c(=O)[nH]c(=O)n3CCc2ccccc2)cc1 (stereo unspecified)	104	100
COc1ccc(C2c3c(n(C)c4ccccc34)C(=O)N2CC(=O)Nc2cccc(F)c2)cc1 (stereo unspecified)	111	106
COc1cc2[nH]c(=O)n(CCCC(=O)NCc3ccccc3)c(=O)c2cc1OC	103	104

Remaining list, next part.
compound	PV pol inh intensity	PV pol inh
Cc1c(-c2nc(-c3ccc4c(c3)OCO4)no2)nnn1-c1ccc(C(C)C)cc1	101	110
COCc1cc(C)nc2sc3c(c12)NC(c1ccc(O)cc1)N(c1ccc(OC)cc1)C3=O (stereo unspecified)	109	112
COc1ccc(Cn2c(=O)c3ccccc3n3c(-c4ccc(C)cc4)nnc23)cc1	105	110
Cc1ccccc1CNC(=O)CSc1nnc(C)c2c(C)n(-c3ccccc3)nc12	95	101
COc1ccc(S(=O)(=O)N2CCN(Cc3nc4ccc(C)cc4o3)CC2)cc1Cl	97	99
Cc1cccc(CN2C(=O)c3ccccc3S(=O)(=O)c3ccc(C(=O)OCC4CCCO4)cc32)c1 (stereo unspecified)	101	109
CCOC(=O)c1c(C)[nH]c(C)c1S(=O)(=O)NCC(=O)Nc1cccc(C#N)c1	106	105
CCC(CC)C(=O)Nc1cc(-c2cccc(C)c2)nn1-c1ccccc1	113	108
CCOc1ccccc1CNC(=O)c1ccc2c(c1)N(CC)CCS2	109	110
COc1ccc(C(=O)Nc2nc3c(s2)Cc2cc(OC)ccc2-3)cc1	75*	67*

One compound at a time, as listed above.
COc1ccc(Cn2c(=O)c3ccccc3n3c(-c4ccc(C)cc4)nnc23)cc1 as listed: PV pol inh intensity: 105; PV pol inh: 110
Cc1ccccc1CNC(=O)CSc1nnc(C)c2c(C)n(-c3ccccc3)nc12 as listed: PV pol inh intensity: 95; PV pol inh: 101

(continued)
compound	PV pol inh intensity	PV pol inh
CCCCN(C)CCCNC(=O)Cn1nc(CC)n2c(cc3sc(C)cc32)c1=O	106	105
Cc1ccccc1-c1nnc(CN2CCN(c3cccc(C)c3C)CC2)o1	105	104
CN(C)S(=O)(=O)N(CC(=O)NCCSCc1ccccc1Cl)c1ccccc1	110	108
COc1ccc(NS(=O)(=O)c2ccc3c(c2)CCCN3C(=O)C2CCC2)cc1OC	101	109
COc1ccc(C)cc1NC(=O)Cn1c(=O)oc2cc(S(=O)(=O)N3CCCCC3)ccc21	106	101
CCc1ccc(NC(=O)CNC(=O)Cn2c(C)cc3ccccc3c2=O)cc1	107	107
CC(C)c1ccc(CN(Cc2ccco2)c2cnc(S(C)(=O)=O)nc2C(=O)Nc2ccc(F)cc2)cc1	111	108
CCOc1ccc(C2C(C(N)=O)=C(C)Nc3nc(-c4ccc(OC)cc4)nn32)cc1 (stereo unspecified)	107	105
Cc1ccc(C(=O)NCCSc2c[nH]c3ccccc23)cc1C	108	106
COc1ccc(NC(=O)/C(C#N)=C/c2ccc(OCc3cc(=O)n4nc(C)sc4n3)cc2)cc1	103	102
Cc1ccc(NC(=O)c2c(C)oc3ncn(C)c(=O)c23)cc1F	111	102
CCC(=O)Nc1cccc(-c2cn3c(C)csc3n2)c1	99	100
COc1ccccc1NC(=O)C1=C(C)Nc2nc(SCc3cccc(F)c3)nn2C1c1ccc(C(=O)O)cc1 (stereo unspecified)	106	106
COc1ccc(-n2nnnc2C2CCN(S(=O)(=O)c3cc(Cl)ccc3OC)CC2)cc1	117	112
COc1cccc(-c2nc(CS(=O)(=O)CC(=O)NCc3cccc(Cl)c3)c(C)o2)c1	107	105
O=C(CCCN1C(=O)C(c2ccccc2)Oc2cccnc21)Nc1ccccc1C(F)(F)F (stereo unspecified)	102	110
Cc1ccc(C)c(C(=O)CSc2nc(-c3ccccc3)nc3c2CCCC3)c1	109	109
CC(=O)c1cccc(NC(=O)C2CCN(S(=O)(=O)c3ccc4c(c3)CCCN4C(C)=O)CC2)c1	114	110
Cc1ccc(C)c(NC(=O)c2oc(=O)c3ccccc3c2-c2ccccc2)c1	109	108
Cc1ccc(Cl)cc1N1CCN(C(=O)c2cc(S(=O)(=O)N3CCCCCC3)cn2C)CC1	112	105
COc1cc(C2CC(=O)Nc3cc4c(cc32)OCCO4)cc(OC)c1O (stereo unspecified)	102	99

Bioassay records: PubChem, ICCB-Longwood Screening Facility, Harvard Medical School
